VCAM-1 up: boosters of cytokine-driven VCAM-1 levels – cell-based, plate reader, pooled HUVEC, TNFa stimulus (AID 455) | augmentation, % at 5 µM | actives 0.2% (n = 10,000) | HUVEC TNFa-induced VCAM-1 immunofluorescence, plate reader; numbers were filed only for top-ranked candidate wells;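 active = a compound raising TNF-alpha-driven VCAM-1 surface staining, with its hit status upheld on visual or statistical review; inactive = the rest, including hits rejected on review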;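 note: 0% = TNFa with vehicle and 100% = strongest image-checked hit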
Proteasome disasm: blocks ATP-dependent breakdown of the yeast 26S proteasome. inhibition of disassembly, % (no concentration beside the values). anti-FLAG beads, GFP-proteasome disassembly, flow cytometry. actives 0.2% (n = 24,000);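 active = above 40%; inconclusive = likely self-fluorescent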;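 note: plate controls were ATP control with full disassembly for no effect and ATP-gamma-S intact proteasomes for full effect; higher percent means more bead fluorescence retained so stronger block of disassembly; stock transfer was 100 nL into about 10 µL; wells with too few beads may also be inconclusive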
An asterisk follows results filed as active. A portion of the library; the hit share may differ from the screen's.

`CCOC(=O)c1sc(=S)n(-c2ccccc2OC)c1N` gave Proteasome disasm -0.3.
O=C(O)C1CC(=O)N(c2ccc(OCc3c(F)cccc3Cl)cc2)C1 (stereo unspecified) was read as VCAM-1 up inactive and Proteasome disasm 0.8.
Cc1ccc(-c2nc(CS(=O)(=O)CC(=O)N3CC(C)CC(C)C3)c(C)o2)cc1 (stereo unspecified) was read as Proteasome disasm 1.3.
Screening CC(=O)N1CCCc2cc(S(=O)(=O)N3CCc4ccccc4C3)ccc21 returned Proteasome disasm -0.6.
For COCCOC(=O)c1[nH]c2c(c1C)C(=O)CC(c1cc(OC)ccc1OC)C2 (stereo unspecified) the results were Proteasome disasm -0.3.
`O=C(CC1CCCCC1)NCc1ccccn1` gave VCAM-1 up inactive and Proteasome disasm 2.1.
Screening CCOC(=O)c1[nH]c(C)c(C(=O)NC(C)(C)C)c1C returned Proteasome disasm -0.1.
Screening COc1ccc(C(CC(=O)O)NC(C)=O)cc1OC (stereo unspecified) returned Proteasome disasm 0.6.
`Cc1ccc(N2CCN(c3ccc(C)cc3)C2c2ccccn2)cc1` gave Proteasome disasm -0.8.
For O=C(NCc1ccc2c(c1)OCO2)c1cccc2c1C(=O)N(C1CCCCC1)C2 the results were VCAM-1 up inactive and Proteasome disasm 0.9.
For c1ccc(CSCc2cn3ccsc3n2)cc1 the results were VCAM-1 up inactive and Proteasome disasm -0.5.
`COc1ccc(NC(=O)CS(=O)CC(=O)Nc2cc(Cl)ccc2OC)cc1` (stereo unspecified) gave VCAM-1 up inactive and Proteasome disasm -0.7.
`COc1ccc(C2OC(=O)CC2C(=O)NC(C)C)cc1` (stereo unspecified) gave Proteasome disasm 0.0.
Cc1ccc(S(=O)(=O)n2nc(OC(=O)c3c(-c4ccccc4Cl)noc3C)cc2N)cc1 was read as Proteasome disasm -0.2.
`COc1ccc2c(c1OC)C(=O)N(c1ccc3c(c1)CCC3)C2=O` gave VCAM-1 up inactive and Proteasome disasm 0.0.
For Cc1ccc(NC(=O)CC2C(=O)NC3CCCCC3N2C(=O)c2ccc(F)cc2)cc1C (stereo unspecified) the results were VCAM-1 up inactive and Proteasome disasm -0.7.
Screening CS(=O)(=O)N1CCCC(C(=O)NCCN2CCC(Cc3ccccc3)CC2)C1 (stereo unspecified) returned Proteasome disasm 9.1.
COc1ccccc1CNC(=O)CN(c1ccc(C)cc1)S(=O)(=O)c1c(C)n[nH]c1C was read as Proteasome disasm 0.8.
C=CCc1ccccc1OCC(O)CN1CCN(c2ccc(C)cc2)CC1 (stereo unspecified) was read as Proteasome disasm 3.0.
Cn1c(C(=O)NCCN2CCOCC2)cc2sccc21 was read as Proteasome disasm 1.4.
For CCn1c(SCC(=O)Nc2cc(C)on2)nc2c(c1=O)SC(C)C2 (stereo unspecified) the results were Proteasome disasm -0.3.
For O=C1c2ccccc2-c2ncnc3c(N4CCOCC4)cc(N4CCOCC4)c1c23 the results were Proteasome disasm 5.6.
`CCOC(=O)C1CCCN(C(=O)CN2C(=O)C(CC)Oc3ccc(C)cc32)C1` (stereo unspecified) gave Proteasome disasm 2.1.
`CCCCCC(=O)Nc1ccc(Cl)cn1` gave Proteasome disasm 0.9.

Structural class: the compounds so far with an NH in an aromatic ring
For COCCOC(=O)c1[nH]c2c(c1C)C(=O)CC(c1cc(OC)ccc1OC)C2 (stereo unspecified) the results were Proteasome disasm -0.3.
Screening CCOC(=O)c1[nH]c(C)c(C(=O)NC(C)(C)C)c1C returned Proteasome disasm -0.1.
COc1ccccc1CNC(=O)CN(c1ccc(C)cc1)S(=O)(=O)c1c(C)n[nH]c1C was read as Proteasome disasm 0.8.

Other records follow:
O=C(c1c(F)cccc1F)N(Cc1ccccn1)C1CCCC1 was read as VCAM-1 up inactive and Proteasome disasm -1.3.
For COc1ccc(Br)cc1CNC(=O)CCc1nc(-c2ccc(C)cc2)no1 the results were VCAM-1 up inactive and Proteasome disasm -1.1.
`CCOC(=O)C1CCCN(CCC(C)c2ccccc2)C1` (stereo unspecified) gave VCAM-1 up inactive and Proteasome disasm 0.0.
For CN(C)C(=O)N1CCC(C(=O)NCc2cccs2)CC1 the results were Proteasome disasm 0.3.
Screening O=C(NCc1ccco1)c1ccc(CS(=O)(=O)Cc2ccc(Cl)cc2)o1 returned Proteasome disasm 0.2.
Screening Cc1csc(NC(=O)C(Cc2ccccc2)n2cccc2)n1 (stereo unspecified) returned VCAM-1 up inactive and Proteasome disasm 1.5.
For COc1cccc(C(=O)Nc2cccc(C(=O)N3CCOCC3)c2)c1 the results were VCAM-1 up inactive and Proteasome disasm -2.4.
`Cc1ccc(S(=O)(=O)N2CCCC2C(=O)Nc2ccc(O)cc2)cc1` (stereo unspecified) gave Proteasome disasm -0.1.
Screening Cc1cc(NC(=O)C2CCCC2)nc2c1c(=O)oc1ccccc12 returned VCAM-1 up inactive and Proteasome disasm 0.9.
For CCn1c(C(=O)NCc2ccccn2)cc2sccc21 the results were Proteasome disasm 1.3.
For C=CCN1C(=O)c2ccccc2Sc2ccc(C(=O)N3CCN(C)CC3)cc21 the results were Proteasome disasm -0.3.
O=C(Nc1ccc(N2CCOCC2)cc1)c1cccc(S(=O)(=O)N2CCCC2)c1 was read as VCAM-1 up inactive and Proteasome disasm 2.7.

Of the compounds above, these contain two or more sulfur atoms:
`CCOC(=O)c1sc(=S)n(-c2ccccc2OC)c1N` gave Proteasome disasm -0.3.
For c1ccc(CSCc2cn3ccsc3n2)cc1 the results were VCAM-1 up inactive and Proteasome disasm -0.5.
For CCn1c(SCC(=O)Nc2cc(C)on2)nc2c(c1=O)SC(C)C2 (stereo unspecified) the results were Proteasome disasm -0.3.

(continued)
CCOc1ccc(NC(=O)c2cccc3c2C(=O)N(Cc2cccnc2)C3)cc1 was read as Proteasome disasm -2.8.
For C=CCNC(=O)C1CC(=O)N(c2ccc(OCC(=O)Nc3ccc(OC)cc3)cc2)C1 (stereo unspecified) the results were VCAM-1 up inactive and Proteasome disasm -0.9.
Screening CCOC(=O)Nc1ccc2ncn(C)c(=O)c2c1 returned Proteasome disasm -1.8.
`Cc1cccn2cc(CNC(=O)c3ccco3)nc12` gave Proteasome disasm -1.1.
Screening Cc1ccc(OC(=O)CCc2c(C)nc3ncnn3c2C)cc1 returned VCAM-1 up inactive and Proteasome disasm -0.7.
Cc1ccccc1Cn1cnc2c(nnn2Cc2ccc(F)cc2)c1=O was read as Proteasome disasm -0.8.
COCCNC(=O)CC(NS(=O)(=O)c1ccc(C)cc1)c1ccco1 (stereo unspecified) was read as Proteasome disasm -0.9.
O=S(=O)(NC1CCCc2ccccc21)c1cnc[nH]1 (stereo unspecified) was read as Proteasome disasm inconclusive.
`CCOC(=O)c1sc(NC(=O)CSc2nnc3c4ccccc4n(CC)c3n2)nc1C` gave VCAM-1 up inactive and Proteasome disasm 2.8.
For CCc1ccccc1NC(=O)c1cc2sccc2n1C the results were Proteasome disasm 2.2.
Screening O=C1C2ON(c3ccccc3)C(c3cccnc3)C2C(=O)N1c1ccccc1 (stereo unspecified) returned VCAM-1 up inactive and Proteasome disasm -0.5.
Screening CCCOC(=O)Nc1sc2c(c1C(=O)OCC)CCC2 returned Proteasome disasm 1.3.
COc1ccc(-c2cc(C(F)F)n3ncc(C(=O)NCC4CCCO4)c3n2)cc1 (stereo unspecified) was read as VCAM-1 up inactive and Proteasome disasm 0.2.
Screening O=S(=O)(NCc1ccccn1)c1ccc2c(c1)OCCO2 returned VCAM-1 up inactive and Proteasome disasm -0.4.
`CCOC(=O)CSc1nc2c(sc(=S)n2CCc2ccccc2)c(=O)n1Cc1ccco1` gave Proteasome disasm 2.2.
CCOC(=O)c1c(C)c(C(=O)NCc2ccc3c(c2)OCO3)c(C)n1C was read as Proteasome disasm 0.1.
For COc1cccc(C(=O)Nc2cnc(NC(=O)c3ccco3)cc2C)c1 the results were VCAM-1 up inactive and Proteasome disasm 0.4.
For O=C(CSc1oc(-c2ccc(F)cc2)nc1S(=O)(=O)c1ccc(F)cc1)NCC1CCCO1 (stereo unspecified) the results were Proteasome disasm 1.6.
`CC(C)C[C@H]1C(=O)N2CCC[C@H]2[C@]2(O)O[C@](NC(=O)[C@@H]3C=C4c5cccc6[nH]c(Br)c(c56)CC4N(C)C3)(C(C)C)C(=O)N12` (stereo partly specified) gave VCAM-1 up inactive and Proteasome disasm 0.7.
COc1ccc(OC)c(C2N(c3ccccn3)C(=O)C3CCCN32)c1 (stereo unspecified) was read as Proteasome disasm -1.3.
`COc1ccc(-n2c(Cc3cc(=O)[nH]c(=O)[nH]3)nnc2SCC(=O)NC2CCCC2)cc1` gave Proteasome disasm -0.8.
For O=C(NCc1ccco1)c1cc2n(n1)C(C(F)(F)F)CC(c1ccc(F)cc1)N2 (stereo unspecified) the results were VCAM-1 up inactive and Proteasome disasm 0.3.
Cc1ccc(Cn2c(=O)c3c(nc4n3CCN4Cc3ccco3)n(C)c2=O)cc1 was read as Proteasome disasm 0.5.
`O=C(CSc1nc(-c2ccco2)cc(C(F)(F)F)n1)NC1CCCC1` gave Proteasome disasm 0.5.

Two records picked at random from the list so far, as already listed:
Screening Cc1csc(NC(=O)C(Cc2ccccc2)n2cccc2)n1 (stereo unspecified) returned VCAM-1 up inactive and Proteasome disasm 1.5.
For COc1cccc(C(=O)Nc2cnc(NC(=O)c3ccco3)cc2C)c1 the results were VCAM-1 up inactive and Proteasome disasm 0.4.

Remaining list, next part
O=C(NC1CCCC1)C1CCCN(S(=O)(=O)c2cccc3cccnc23)C1 (stereo unspecified) was read as VCAM-1 up inactive and Proteasome disasm -0.5.
For CCSCC1COC(c2cccn2Cc2ccc(C)cc2)=N1 (stereo unspecified) the results were Proteasome disasm 0.2.
CCN(CC)c1ccc(NC(=O)CCCCCN2C(=O)c3ccccc3C2=O)cc1 was read as Proteasome disasm 0.0.
CC(C)C(NC(=O)c1ccco1)C(=O)NCC(c1ccco1)N1CCCCC1 (stereo unspecified) was read as VCAM-1 up inactive and Proteasome disasm 3.0.
For CCC(C)OC(=O)C1=C(C)NC(=O)CC1c1ccccc1OC (stereo unspecified) the results were Proteasome disasm -0.4.
`CC(C)=CCCC(C)N(C=O)C(C)CCC=C(C)C` (stereo unspecified) gave VCAM-1 up inactive and Proteasome disasm 0.7.
c1ccc(CN2CCN(CCCNc3ccc4nnc(-c5ccccc5)n4n3)CC2)cc1 was read as VCAM-1 up inactive and Proteasome disasm -1.0.
Screening COc1ccc(C2CC(c3ccc(Cl)cc3Cl)Nc3nc(N)nn32)cc1 (stereo unspecified) returned VCAM-1 up inactive and Proteasome disasm -0.5.
For COC(=O)c1cccnc1-n1c(=O)c2cccnc2n(Cc2ccc(Cl)cc2)c1=O the results were Proteasome disasm 2.6.
CCCn1nc(NC(=O)c2cccs2)c2cc3cc(OC)ccc3nc21 was read as VCAM-1 up inactive and Proteasome disasm 5.6.
`O=C(CCc1nc2ccccc2[nH]1)NC1CCCCC1` gave Proteasome disasm 0.0.
O=S(=O)(Nc1ccc(Cl)c(C(F)(F)F)c1)c1cnc[nH]1 was read as Proteasome disasm -2.4.
Screening Cn1nnnc1SCSc1nnnn1C returned VCAM-1 up inactive and Proteasome disasm 0.1.
Screening C=CCn1c(=S)[nH]c2nc3c(cc2c1=O)COC(C)(C)C3 returned VCAM-1 up inactive and Proteasome disasm -2.8.
COc1cccc(NC(=O)C2C3C=CC4(O3)C2C(=O)N(C(C)C)C4C(=O)NC2CCCCC2C)c1 (stereo unspecified) was read as VCAM-1 up inactive and Proteasome disasm -0.9.
Screening Cc1nc2nc(SCC(=O)NCc3ccco3)nn2c(C)c1Cc1ccccc1 returned VCAM-1 up inactive and Proteasome disasm -0.8.
For Cc1cccc(-n2nnnc2SCc2csc(-c3ccccc3)n2)c1 the results were VCAM-1 up inactive and Proteasome disasm 1.2.
CSCC[C@@H](Nc1nc(-c2ccccc2)nc2c1oc1ccccc12)C(=O)O was read as VCAM-1 up inactive and Proteasome disasm 0.3.
`CCOC(=O)C1/C(=N\O)CC(C)(O)C(C(=O)OCC)C1c1ccc(N(C)C)cc1` (stereo unspecified) gave VCAM-1 up inactive and Proteasome disasm 0.8.
Screening Cc1c(Cl)cccc1Nc1ccccc1C(=O)O returned VCAM-1 up inactive and Proteasome disasm -0.1.
`Nc1ncnc(Nc2ccccc2C(F)(F)F)n1` gave VCAM-1 up inactive and Proteasome disasm 2.4.
For O=C(CCN1C(=O)C2C3C=CC(C3)C2C1=O)NCCN1CCCc2ccccc21 (stereo unspecified) the results were Proteasome disasm -3.2.
Screening COc1ccc(-c2noc(CCC(=O)NCC3CCN(Cc4cccc(C)c4)CC3)n2)cc1 returned Proteasome disasm 1.1.
Cc1ccc(CCNC(=O)C2CCN(S(=O)(=O)N3CCC4(CC3)OCCO4)CC2)cc1 was read as Proteasome disasm 1.1.
COCCNC(=O)c1snc2ccc(Cl)cc12 was read as VCAM-1 up inactive and Proteasome disasm -1.0.
Screening S=c1[nH]nc(-c2cccc(Br)c2)o1 returned VCAM-1 up inactive and Proteasome disasm -0.9.
CCOC(=O)CN1C(=O)CSc2ccccc21 was read as Proteasome disasm 1.5.
`CCOc1c(N2CCCCC2)c(=O)c1=O` gave Proteasome disasm 0.6.
Screening O=C(C1CCN(S(=O)(=O)c2cccc3cccnc23)CC1)N1CCn2c1nc1ccccc12 returned Proteasome disasm 0.5.
For CC1(C)CC(=O)C(C=Nc2ccccc2C(=O)O)=C(O)C1 the results were Proteasome disasm -1.4.
